Source: PubChem BioAssay (National Center for Advancing Translational Sciences (NCATS))
Six1-Eya2 inh – qHTS Assay for Inhibitors of the Six1/Eya2 Interaction; hit rate 0.56% among 360,000; activity change, % (test concentration not listed); Homeobox protein SIX1 (Homo sapiens) + Protein phosphatase EYA2 (Homo sapiens), …; AlphaScreen GST-Six1/His-Eya2 binding, biochemical; stronger effect = lower value; control for the full effect not named in the record; in the data active = activity change below about -65%; inconclusive = about -30% to -65%; inactive = above about -30%; note: % is set by controls: 0 for no effect and ±100 for the full control effect; compound concentration not given in the record
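Compounds are tested against tagged Six1 and Eya2 proteins bridged by glutathione donor and nickel acceptor beads; after a one-hour incubation at 37 °C without light, AlphaScreen emission is recorded.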
TRPML1 agonist – qHTS for Agonists of the Human Mucolipin Transient Receptor Potential 1 (TRPML1); hit rate 0.12% among 410,000; TRPML1-expressing cells, Ca2+ dye fluorescence, FDSS; host cell line not named in the record; reference of the full effect not given here; activation, % (no concentration beside the values); Mucolipin-1 (Homo sapiens), Q9GZU1; in the data active = activation above about 50%; inconclusive = about 30% to 50%; inactive = below about 30%; note: 0% is about no effect; the text of the record puts the active cut at 80%
Target sequence (Q9GZU1 whole entry, looked up): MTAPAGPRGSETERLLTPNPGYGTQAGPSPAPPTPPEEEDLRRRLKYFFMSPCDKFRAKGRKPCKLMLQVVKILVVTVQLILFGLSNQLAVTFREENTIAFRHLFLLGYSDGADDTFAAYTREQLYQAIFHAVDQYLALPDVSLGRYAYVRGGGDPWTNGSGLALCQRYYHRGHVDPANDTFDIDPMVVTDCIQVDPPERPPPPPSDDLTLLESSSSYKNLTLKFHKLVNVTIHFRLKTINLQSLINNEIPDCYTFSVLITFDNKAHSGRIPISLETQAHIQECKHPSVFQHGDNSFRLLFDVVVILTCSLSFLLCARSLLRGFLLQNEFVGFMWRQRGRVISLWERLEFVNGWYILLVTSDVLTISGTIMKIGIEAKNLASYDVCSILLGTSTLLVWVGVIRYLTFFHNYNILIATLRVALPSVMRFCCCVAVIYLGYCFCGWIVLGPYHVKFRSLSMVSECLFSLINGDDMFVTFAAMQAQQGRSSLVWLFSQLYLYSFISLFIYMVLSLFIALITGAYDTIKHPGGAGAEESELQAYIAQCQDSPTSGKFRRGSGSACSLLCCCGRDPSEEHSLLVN
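In this qHTS format, compounds were pin-transferred onto Ca8-dye-loaded TRPML1-DL cells induced with Tet overnight, and intracellular Ca2+ fluorescence was recorded kinetically for 110 s after a 10 s baseline. A subsequent 4uM final 54-4 (EC80) addition followed by a second 110 s read served as the antagonist phase.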
PINK1 modulator – A Quantitative High throughput Screen to Identify Chemical Modulators of PINK1 Expression | PINK1 immunofluorescence, high-content cytometry, 24 h | hit rate 0.2% among 410,000 | AID 624263, 2012 | Potency, µM (titrated, usually from 76.6 µM), inactives show at the top dose activation (PINK1 increase), most hits filed as activators; active = well fitted activation curve with a large enough effect; inconclusive = small, poorly fitted or top-dose-only effect; inactive = flat fitted curve, though single readings scatter; cell line not stated here;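 note: potency is the fitted concentration of half-maximal effect; % of control where 0% means no effect; nearly all actives have a fitted effect of over 65% in size; a mitochondrial uncoupler was the plate control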
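PINK1 protein, normally rapidly degraded, was detected by immunofluorescence after 24 hour compound treatment of a stable cell line. Titration data (5 concentrations) came from laser-scanning cytometry, with CCCP-treated wells as controls.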
TRPML1 inh – qHTS for Inhibitors of the Human Mucolipin Transient Receptor Potential 1 (TRPML1); activity change, negative = inhibition, % (test concentration not listed); Mucolipin-1 (Homo sapiens), Q9GZU1; TRPML1-inducible cells, Ca2+ dye fluorescence, FDSS; stronger effect = lower value; inhibition of EC80 agonist-evoked calcium signal; AID 624415, 2012; hit rate 0.02% among 390,000; in the data active means activity change below about -50%; inconclusive means about -30% to -50%; inactive means above about -30%;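 note: stimulus is agonist 54-4 at its EC80 concentration; % is set by controls: 0 for no effect and ±100 for the full control effect; compound concentration not given in the record; the text of the record puts the active cut at -80%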
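Calcium fluorescence in TRPML1-DL cells induced overnight with Tet: a 110 s read after compound pin addition, then a 110 s antagonist read after challenge with 54-4 at 4 uM final (EC80).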
D2 ag – Beta-Arrestin HTS for Positive Allosteric Modulators of the Human D2 Dopamine Receptor: Agonists; hit rate 0.084% among 360,000; D(2) dopamine receptor (Homo sapiens), P14416; activation, % (concentration not given with the values); DiscoveRx PathHunter D2 beta-arrestin, luminescence, 90 min; 100% = 57 uM dopamine signal; in the data active = activation above about 40%; inconclusive = about 15% to 40%; inactive = below about 15%; note: compound concentration not given in the record; the text of the record calls up to 30% inactive
Target sequence (P14416 whole entry, looked up): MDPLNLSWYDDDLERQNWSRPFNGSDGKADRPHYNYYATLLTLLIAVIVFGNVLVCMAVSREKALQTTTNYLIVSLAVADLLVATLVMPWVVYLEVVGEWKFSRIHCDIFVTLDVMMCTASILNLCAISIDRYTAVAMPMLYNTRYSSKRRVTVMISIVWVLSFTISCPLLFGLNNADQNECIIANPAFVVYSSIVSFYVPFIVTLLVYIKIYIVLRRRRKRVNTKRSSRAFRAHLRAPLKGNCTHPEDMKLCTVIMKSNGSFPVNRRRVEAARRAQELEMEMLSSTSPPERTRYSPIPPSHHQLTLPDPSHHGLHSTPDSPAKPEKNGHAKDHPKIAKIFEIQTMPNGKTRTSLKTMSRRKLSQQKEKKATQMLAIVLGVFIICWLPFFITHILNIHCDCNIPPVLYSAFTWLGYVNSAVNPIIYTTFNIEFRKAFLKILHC
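Agonist mode: compounds alone added to overnight-plated D2 PathHunter cells for 90 min at 37 C, with 57 uM final dopamine (EC100) defining full response. Beta-arrestin recruitment detected by chemiluminescent reagent, read after 1 h at ambient temperature.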
D2 PAM – Beta-Arrestin HTS for Positive Allosteric Modulators of the Human D2 Dopamine Receptor: Potentiators; D(2) dopamine receptor (Homo sapiens), P14416; DiscoveRx D2 beta-arrestin cells, luminescence, 90 min; 100% = 57 uM dopamine signal; potentiation, % (test concentration not listed); hit rate 0.23% among 360,000; AID 624464, 2012; active = potentiation of 50% or more; inconclusive = 30% to 50%; inactive = 30% or less;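 note: compound concentration not given in the record; tested on top of an EC20 dose of dopamine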
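PathHunter beta-arrestin assay in DiscoveRx D2 cells. Compounds were added with an EC20 of dopamine (50 nM final) for 90 min at 37 deg C. Luminescence was read 1 h after detection reagent, with 57 uM dopamine as the EC100 control.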
* = called active by the depositor; u = inconclusive; x = not tested or not shown; [ ] = another dose, or the depositor's remark.

SMILES	Six1-Eya2 inh	TRPML1 agonist	PINK1 modulator	TRPML1 inh	D2 ag	D2 PAM
CCc1ccc(C(=O)NNC(=O)C2CC(=O)N(Cc3ccccc3)C2)cc1 (configuration not stated)	2	1.3	1.7%	-5	2.7	-9
CSCCC(NS(=O)(=O)/C=C/c1ccccc1)C(=O)O (configuration not stated)	-5	-0.7	0.1%	2	0.5	-2
NC(=Nc1ccccc1)Nc1ccccc1	2	19	-1.8%	-5	9.1	-6
CCOC(=O)N1CCC(c2cc(=O)n3[nH]cc(C(=O)OC)c3n2)CC1	1	-0.8	1.7%	-5	-4.2	-11
CCC(C(=O)OCc1cc(=O)n2nc(C)sc2n1)c1ccccc1 (configuration not stated)	x	-0.6	0.6%	-8	x	x
COc1ccc(Cc2c(-c3ccc(F)cc3)nc3ccc(Cl)cn23)c(C)c1	-6	-0.5	1.1%	31	-5.1	-3
O=C(COC(=O)c1cc([N+](=O)[O-])ccc1NCCO)c1ccc(Cl)cc1	0	1.7	1.0%	-3	3.8	-3
COc1ccccc1C(=O)COC(=O)Cn1[nH]c(=O)c2ccccc2c1=O	4	0.5	u	6	-2.0	-14
CCOc1ccc(-c2nc(CSCC(=O)N3CCN(c4cccc(C(F)(F)F)c4)CC3)c(C)o2)cc1	x	1.6	1.4%	65	x	x
CC(=O)NC(=Cc1ccccc1)C(=O)N1CCCC1C(=O)O (configuration not stated)	1	-1.0	5.1%	-2	-2.9	0
COc1ccccc1C1(O)CCN(CC(=O)Nc2c(C)nn(C)c2C)CC1	4	3.3	1.9%[38.3 µM]	13	-0.5	-6
CO/N=C/Cc1c([N+](=O)[O-])c(C)nn1C	5	-1.0	2.4%	-5	1.6	-5
Brc1nc(Br)n(Cc2ccccc2)n1	7	-0.5	0.4%	25	-5.4	-9
Cc1cc(NC(=O)CCC(=O)N(c2cccc(F)c2)C(C(=O)NC2CCCC2)c2ccncc2)no1 (configuration not stated)	2	1.5	0.1%	-6	-2.1	-4
CCNc1nc(NCC)nc(Oc2ccc(OCC)nn2)n1	-1	0.8	x	-5	-1.8	6
CCOc1ccc(CCNC(=O)CCc2c(C)nc3c4c(C)cc(C)nc4nn3c2C)cc1	x	0.1	-0.4%	u	x	x
O=C(Cn1c(-c2cccs2)cc2cc(F)ccc21)N1CCN(c2ccccc2)CC1	x	1.4	-1.0%	36	x	x
Cc1ccc(S(=O)(=O)NCC(=O)OCC(=O)NCc2ccc(F)cc2)cc1	7	0.8	0.1%	-7	-2.3	-3
CCc1ccc2[nH]c3nc(SCc4nnc(-c5ccccc5)o4)nnc3c2c1	-5	0.1	2.5%	8	-4.4	-2
CN(C)/C=C(/C(=O)c1ccc(Cl)cc1)S(=O)(=O)c1ccc(Cl)cc1	5	0.0	-3.7%	-1	-0.2	-12
CC(=O)Nc1ccc(NC(=O)c2ccnn2C)cc1	7	0.6	0.5%	4	-3.8	-1
COc1ccc2nc3n(c(=O)c2c1)-c1ncccc1C(=O)NC3Cc1ccccc1 (configuration not stated)	-3	x	1.2%	x	-0.3	x
CCn1c(C)c(C)c2cc(C(=O)NCc3ccc(F)cc3)ccc21	x	3.3	-0.6%	18	x	x
Cc1ccc(C(=O)Nc2ccc(C(=O)O)cc2)cc1S(=O)(=O)Nc1ccccc1	x	-0.1	1.2%	6	x	x
CC(C)(C)c1ccc(C(=O)NCCC(=O)N2CCCC2)cc1	-3	2.1	1.3%	13	-1.9	-4
O=C(CN1CCCCCC1)NN(Cc1ccccc1)c1ccccc1	6	2.3	-2.2%	9	-2.9	-13
O=C(C=CC(=O)OC1CCCCC1)OC1CCCCC1	-1	2.4	1.3%	-13	-7.9	-6
CCC1(C(N)=O)CC2C=CC1C2 (configuration not stated)	8	1.2	-0.2%	13	-1.5	-2
Oc1c(Br)cc(Br)cc1/C=N/NC(=S)N[C@H]1CC2C=CC1C2 (some centres not stated)	-23	0.3	u	-3	-6.3	-26
CCc1ccccc1NC(=O)CSC1=Nc2ccccc2C2=NC(Cc3ccccc3)C(=O)N12 (configuration not stated)	x	-0.5	2.9%	0	x	x
O=C(CCc1ccccc1)Nc1ccc(NC(=O)C2CCCCC2)nc1	-9	1.2	9.4%	7	-6.0	-8
CCOC(=O)c1ccc2ncc(C(=O)OCC)c(NCCN(C)C)c2c1	4	-0.7	2.6%	-7	-1.1	0
CSc1nc2sc3c(c2c2nncn12)CCC3	u	0.8	0.4%	9	-1.8	-6
O=P(O)(CP(=O)(c1ccccc1)c1ccccc1)c1ccccc1	5	1.6	4.1%	27	-1.0	6
COc1ccc(N2CCN(c3csc4ccccc4c3=O)CC2)cc1	x	1.0	0.3%	-16	x	x
Cc1ccc(NC(=S)N(CCCN2CCOCC2)Cc2ccco2)cc1	1	-0.3	1.0%	10	-6.9	-21
COc1ccc(NC(=O)c2ccccc2[N+](=O)[O-])cc1OC	9	0.9	-0.4%	-18	3.3	-8
CCOc1ccc(NS(=O)(=O)c2cc(Cl)ccc2OC)cc1	7	-1.2	-1.9%	0	-2.2	8
CN(C)CCNC(=O)Nc1cccc(Cl)c1Cl	0	1.7	2.2%	-9	-3.3	-29
CC(=O)NCCn1c(SCC(=O)c2ccc(Cl)cc2)nc2ccccc2c1=O	4	-0.4	7.2%[38.3 µM]	-6	-0.9	4

Sorted by heavy-atom count (low to high): some entries from above.
SMILES	Six1-Eya2 inh	TRPML1 agonist	PINK1 modulator	TRPML1 inh	D2 ag	D2 PAM
CC(C)(C)c1ccc(C(=O)NCCC(=O)N2CCCC2)cc1	-3	2.1	1.3%	13	-1.9	-4
COc1ccc(N2CCN(c3csc4ccccc4c3=O)CC2)cc1	x	1.0	0.3%	-16	x	x
Cc1ccc(NC(=S)N(CCCN2CCOCC2)Cc2ccco2)cc1	1	-0.3	1.0%	10	-6.9	-21

In the list so far, these have bromine:
SMILES	Six1-Eya2 inh	TRPML1 agonist	PINK1 modulator	TRPML1 inh	D2 ag	D2 PAM
Brc1nc(Br)n(Cc2ccccc2)n1	7	-0.5	0.4%	25	-5.4	-9
Oc1c(Br)cc(Br)cc1/C=N/NC(=S)N[C@H]1CC2C=CC1C2 (some centres not stated)	-23	0.3	u	-3	-6.3	-26

Next part.
SMILES	Six1-Eya2 inh	TRPML1 agonist	PINK1 modulator	TRPML1 inh	D2 ag	D2 PAM
O=C(N/N=C1\CCCc2oc(C(=O)O)cc21)c1ccccc1	4	0.0	2.2%	13	-4.5	-5
C[C@@H]1CN([C@H](C)CO)C(=O)CCCn2nncc2CO[C@H]1CN(C)C(=O)NC1CCCCC1	5	-0.7	1.2%	32	-8.4	1
COc1cc(C2c3c(-c4cc(Cl)c(C)cc4O)n[nH]c3C(=O)N2Cc2cccnc2)ccc1O (configuration not stated)	-20	2.2	1.2%	10	12	4
COc1ccc(-n2ccn(CC(=O)Nc3ccccc3OC)c(=O)c2=O)cc1	4	0.1	-1.4%	32	3.5	-6
O=Cc1c(SCCO)nc2ccccn2c1=O	-4	x	0.2%	x	-6.4	-4
O=C(CCN1CCN(c2ccccc2)CC1)c1ccc(Br)cc1	-10	1.3	-0.7%	20	3.9	-16
O=C(NCCNc1ccccc1[N+](=O)[O-])c1cc(F)c(F)cc1Cl	4	-0.2	1.3%	-5	2.0	-10
C=CCc1cccc2cc(C(=O)NNC(=O)CC#N)c(=O)oc12	2	-0.6	-1.9%	18	-0.7	-7
CCC(C)NC(=O)CN(c1cc(C)ccc1OC)S(C)(=O)=O (configuration not stated)	6	2.9	x	41	0.3	-4
O=C(COC(=O)[C@@H]1CC(O)CN1S(=O)(=O)c1ccccc1[N+](=O)[O-])Nc1ccc2ccccc2c1 (some centres not stated)	-2	0.1	1.2%	-28	-3.1	-14
CC(=O)c1c(C)n(CCO)c2ccc(O)cc12	2	3.1	4.4%[38.3 µM]	-9	-0.8	17
C/C(CC(=O)Nc1ccc2c(c1)OCCO2)=N\NC(=O)COc1ccc(Cl)c(C)c1	-6	0.0	-0.7%	24	-0.4	5
Cc1c(C)c2ccc(OCC(=O)NC(Cc3c[nH]c4ccc(O)cc34)C(=O)O)c(C)c2oc1=O (configuration not stated)	-12	x	0.2%	x	6.5	22
Cc1cc(NC(=O)COC(=O)C2CC(=O)N(c3cccc(Cl)c3)C2)no1 (configuration not stated)	1	0.5	0.2%	-5	-2.2	-5
CN1CCc2nc3sc(C(=O)NCc4ccccc4)c(N)c3cc2C1	-15	0.0	2.2%	-9	-1.7	-4
COc1cccc(N2C(=O)Nc3ccc(Br)cc3C2(O)C(=O)NCCCOC(C)C)c1 (configuration not stated)	-4	0.7	3.4%	0	-1.6	3
COC(=O)c1ccc(OCC(O)CN(CC(C)C)CC(C)C)cc1 (configuration not stated)	0	1.1	u	0	-3.8	-8
Cc1cc(C)c(NC(=O)c2cc(S(=O)(=O)N3CCCC3)cn2C)c(C)c1	x	1.5	-0.7%	-15	x	x
O=C(Nc1ccc(Br)cc1)C1CCCN1S(=O)(=O)c1cccs1 (configuration not stated)	7	-1.1	1.0%	15	5.9	-14
CCn1c(SCC(N)=O)nc2cc(S(=O)(=O)N3CCOCC3)ccc21	7	-0.9	3.8%	-4	-1.0	u
COc1ccccc1-c1cc(NC(C)=O)c2ncc(-c3ccccc3)n2c1	0	-0.3	2.0%	x	-8.3	-2
CCCNC(=O)c1oc2ccc3c(c2c1C)C(O)CC(C)(C)O3 (configuration not stated)	0	1.0	-0.2%	-9	1.1	-3
CCN(CC(=O)Nc1c(F)cccc1F)C(=O)CNC(=O)c1cccc(C)c1	6	0.1	-0.6%	11	-0.1	0
CC(C)Oc1ccc(CCC(=O)N/N=C/c2ccncc2)cc1	-1	1.0	1.0%	-2	-23	-11
CC(CCc1ccc(O)cc1)NC1C2CC3CC(C2)CC1C3 (configuration not stated)	-7	-0.1	-0.8%	18	3.7	-20
Cc1ccccc1-c1ccc(Nc2ccc(C(=O)N3CCOCC3)cc2)nn1	-3	-0.2	-1.5%[38.3 µM]	-6	0.1	1
Cc1ccccc1Cn1c(=O)n(CCCC(=O)NCc2ccco2)c(=O)c2sccc21	-3	1.9	2.7%	24	-1.0	-1
CCOc1ccccc1NC(=O)C(=O)/C=C(\O)c1cc(OC)ccc1OC	0	1.6	4.1%	12	-2.8	-15
CCCC(=O)N1CCN(c2nc3ccccc3s2)CC1	5	0.6	0.5%	1	2.8	-5
O=[N+]([O-])c1cccc(S(=O)(=O)NCc2ccncc2)c1	-2	0.5	-0.8%	2	-1.5	17
CCc1ccc(C2=NN(CCC(=O)NC(C)CCc3ccccc3)C(=O)CC2)cc1 (configuration not stated)	3	3.0	0.2%	-18	-2.6	-3
CCn1cc(S(=O)(=O)c2ccccc2)c(=O)c2cc(C)ccc21	x	1.9	-1.7%	-10	x	x
